High-throughput results from PubChem.
Biofilm kill mix: mixture kills Candida albicans biofilm cells; 120,000 compounds, 0.02% hits; inhibition, % at 7.6 µM; C. albicans biofilm persisters + clotrimazole, fluorescence viability; primary screen in compound mixtures of four per well; AID 1242;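 active = inhibition above 30.3% in the primary screen of four-compound pools, then above 30% when the compound was retested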;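 also: compounds exposed to preformed 24 h biofilms for 48 h; the number belongs to the whole pool; some results filed as inactive read as strong as hits; inactives centre near 12; 0% = biofilm with clotrimazole alone and 100% = kill control; retested singly at about 60 µM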
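Test system: C. albicans biofilms. Buffer or medium: RPMI/MOPS medium, pH 7.0. Timing: 48 h compound exposure at 37 °C. Technique: Alamar Blue fluorescence. Evaluation: percent inhibition of biofilm viability.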
Numbers without * were called inactive. Some of the compounds tested. The share of hits here may be higher or lower than overall.

Compound | Biofilm kill mix
CC(=O)Nc1ccc(S(=O)(=O)Nn2cnnc2)cc1 | 11
Cc1ccc(SC2=C(Sc3ccc(C)cc3)C(=O)c3ccccc3C2=O)cc1 | 11
CCOc1cc2c(cc1OCC)C(c1ccc(OC)cc1)N(c1ccccc1)C(=O)C2 (configuration not stated) | 18
O=C(COc1ccc(/C=N/NC(=O)c2ccccc2O)cc1)Nc1ccccc1 | 6
Cc1occc1C(=O)NNC(=O)COc1ccc(Br)cc1Br | -10
CNC(=S)Nc1ccc(Br)cc1 | 15
CC1CCN(CCCCOc2ccc(Br)cc2)CC1 | 9
Nc1nc(COc2ccccc2C=O)nc(Nc2ccccc2)n1 | 23
O=C(Cn1c2c(c(-c3ccccc3Cl)cc1=O)CCC2)NCC1CCCO1 (configuration not stated) | 19
CCO[C@H]1OC(C(=O)N2CCN(Cc3ccc4c(c3)OCO4)CC2)=C[C@@H](c2cn(C(C)=O)c3ccccc23)[C@@H]1CCCO | 19
Oc1nc(Nc2ccc(Cl)cc2Cl)sc1/C=C1\C=Nc2ccccc21 | 11
COc1cc(/C=C2/SC(=S)N(C)C2=O)ccc1OC(=O)c1ccco1 | 13
CC(C)(C)NC(=O)NC(=O)CSc1cccc(C(F)(F)F)c1 | 1
CCOc1cc(NC(=S)NCCCN2CCOCC2)c(OCC)cc1NC(=O)c1cccc(C)c1 | 0
CC(=O)c1sc(Nc2ccc(C)cc2)nc1C | 12
COc1ccc(N2CCN(C(=O)Cc3ccc(Br)cc3)CC2)cc1 | 18
COC(=O)c1c(C)oc(C)c1S(=O)(=O)NC(c1ccccc1)c1ccccc1 | 20
O=C(NCCc1cccc(Cl)c1)c1ccc(Cl)c([N+](=O)[O-])c1 | 12
CCOC(=O)CNc1ncc([N+](=O)[O-])cc1C#N | 6
O=C(NCc1ccc(F)cc1)C1CCN(S(=O)(=O)N2CCOCC2)CC1 | 16
CCCCCC(=O)N/N=C/c1ccccc1[N+](=O)[O-] | 17
CSc1cccc(NC(=S)N2CCCN(Cc3ccccc3F)C2)c1 | 14
CNc1cc(Cl)nc(SC)n1 | 13
CC1(NC(=S)NCCCCCCNC(=S)NC2(C)CCS(=O)(=O)C2)CCS(=O)(=O)C1 (configuration not stated) | 33
Cc1ccc(-c2cc3c(N=O)c4ccccc4c-3n[nH]2)cc1 | 7
CS(=O)(=O)N1CCN(c2ccc(C(=O)NC34CC5CC(CC(C5)C3)C4)cc2[N+](=O)[O-])CC1 | 20
COc1ccc(O[C@H]2C=C[C@@H](c3ccccc3)O[C@@H]2COC(=O)CC/C(C)=N/O[C@@H](C)c2cc(-c3c(C)cc(C)cc3C)no2)cc1 | -3
COc1cc2nc(C(C)(C)C)oc(=O)c2cc1OC | 5
CCCC(=O)Nc1nc(-c2ccccc2)c(CC)s1 | 7
Cc1nc2ncccn2c1-c1csc(Nc2ccc(N(C)C)cc2)n1 | 15
CC(C)C(NC(=O)C(Cc1ccccc1)NC(=O)OCc1ccccc1)C(=O)O (configuration not stated) | 26
Cc1cc(C)cc(OCC(=O)NCCc2nc3ccccc3[nH]2)c1 | 20
CCc1cc2cc(C)cc(C)c2nc1SCC(=O)NNC(=O)c1ccco1 | 9
CC(=O)c1sc(N/N=C\c2cccc(Br)c2)nc1C | 16
CC(C)(C)NC(=O)NC(=O)CN1CCN(c2cccc(Cl)c2)CC1 | 24
CCCC(C)NC(=O)COC(=O)c1cc(Br)c(Br)s1 (configuration not stated) | 4
CCCCCC1C/C(=N\O)C=C(C)C1C(=O)OC (configuration not stated) | -33
C/C=C(\C)C(=O)NCCN1C2=NC[C@H](C)N2C[C@@H]1Cc1ccc(OC)cc1 | 13
CCOC(=O)C1(Cc2ccc(Cl)cc2)CCN(Cc2cn(CC)nc2C)CC1 | 24
CC1CCCC(NC(=O)CCn2c(=S)oc3ccccc32)C1C (configuration not stated) | 14
O=C(NCc1ccccn1)c1cc(-c2ccc(-c3ccccc3)cc2)nc2ccccc12 | 9
CCN(CC)Cc1c(O)ccc2c(=O)c(Oc3ccccc3OC)c(C)oc12 | 7
Cc1ccc(OC(=O)c2ccc3nc(C)sc3c2)cc1 | 23
O=C(N/N=C/c1cc([N+](=O)[O-])ccc1N1CCCCCC1)c1ccccn1 | 19
CC(=O)Nc1nc(C)c(CCCOc2ccc([N+](=O)[O-])cc2)c(=O)[nH]1 | 11

By substructure: those above containing fluorine
Compound | Biofilm kill mix
CC(C)(C)NC(=O)NC(=O)CSc1cccc(C(F)(F)F)c1 | 1
O=C(NCc1ccc(F)cc1)C1CCN(S(=O)(=O)N2CCOCC2)CC1 | 16
CSc1cccc(NC(=S)N2CCCN(Cc3ccccc3F)C2)c1 | 14

Additional entries:
Compound | Biofilm kill mix
Cc1[nH]nc2c1C(c1cccs1)C(C#N)=C(N)O2 (configuration not stated) | -17
Cc1nn(CC(=O)Nc2ccccn2)c(C)c1Br | 4
O=[N+]([O-])c1cncc([N+](=O)[O-])c1Nc1ccccc1Cl | 11
O=C1NC(=Nc2ccccc2)S/C1=C\c1cccs1 | 23
Cc1ccc(S(=O)(=O)N2CCC(NC(=O)OC(C)C)CC2)cc1 | 3
Cc1ccc(NC(=S)N2CCn3cccc3C2c2cccnc2)cc1 (configuration not stated) | 17
CC1=NN(c2ccccc2)C(=O)C1C=Nc1ccc(N(C)C)cc1 (configuration not stated) | 12
Cc1cc(C)nc(/N=C(\N)Nc2ccc(-c3ccccc3)cc2)n1 | 24
C=CCNC(=O)C1CC2Cn3c(nc4cc(C)c(C)cc43)C2N1C (configuration not stated) | 16
CS(=O)(=O)N(CC(=O)NCCc1ccccc1)c1cccc([N+](=O)[O-])c1 | 17
COc1cc2c(=O)n(CCC(=O)NCC3CCCO3)c(=O)n(CC(=O)c3ccc(Cl)cc3)c2cc1OC (configuration not stated) | 8
COc1ccc(-n2c(CCC(=O)O)ccc2-c2ccccc2)cc1 | 10
COc1ccc(NC(=O)/C(C#N)=C\c2ccc(Br)o2)cc1 | 21
CC(C(=O)OCC(=O)c1ccccc1)N1C(=O)c2ccccc2C1=O (configuration not stated) | 12
Cc1ccc(C(=O)NS(=O)(=O)c2ccc(N=NN(C)C)cc2)cc1 | 4
O=C1CCC(=O)N1c1ccc(NCCc2ccccc2F)c([N+](=O)[O-])c1 | 21
CCNC(=S)Nc1ccc(Cc2ccncc2)cc1 | 7
CC(C)(C)NC(=S)NC(C)(C)C | 7
Nc1c(C(=O)O)ccc2c1C(=O)c1ccccc1C2=O | 11
S=C(NCCc1ccc(Cl)cc1)NC1CC1 | 8
O=C(/C=C/c1ccco1)NC(=S)Nc1nc(-c2ccc3ccccc3c2)cs1 | 7
COc1cc2c(cc1OC)CN(C(=S)Nc1cccc(Cl)c1C)CC2 | 27
COc1ccc([N+](=O)[O-])cc1NC(=O)C(C)Sc1nc(C)c(C)c(C)n1 (configuration not stated) | 2
CCOc1ccc(C(=O)CSc2nnc(C3CC3)n2C)cc1 | 6
CCNC(=S)N(Cc1cc2cccc(C)c2[nH]c1=O)C1CCCC1 | 8
O=C1CSC(c2cccnc2)N1Cc1ccc(Cl)c(Cl)c1 (configuration not stated) | 22
COc1cc(NC(=S)NCCc2ccccc2)c(OC)cc1NC(=O)C(C)C | 22
CC(C)[C@@H]1NC(=O)c2cc([N+](=O)[O-])cc(I)c2NCCC[C@@H](C(=O)NC(CC(=O)O)C(N)=O)NC(=O)[C@H](CO)NC1=O (some centres not stated) | 20
CCOC(=O)C1=C(c2ccccc2)Nc2ncnn2C1c1ccc(C(=O)O)cc1 (configuration not stated) | 1
COc1ccc(CN2C(=O)CC(C(=O)NCCc3ccc(S(N)(=O)=O)cc3)SC2=Nc2ccccc2)cc1 (configuration not stated) | 1
COCC1CCN(Cc2cn(Cc3ccccc3)nc2-c2cc3ccccc3o2)CC1 | 13
NC(=S)N=Nc1c(O)n(CCCl)c2ccc(Br)cc12 | 13
Cc1ccc(NC(=O)CCNC(=O)c2ccco2)cc1F | 9
COc1cccc(NC(=S)C(C#N)=C2N(C)c3ccccc3N2C)c1 | -4
O=C(Nc1ccc(Cl)cc1)/C(=C/c1cccc(O)c1)c1nc2ccccc2s1 | 15
Cc1[nH]c2ccccc2c1/C=N/NC(=O)c1cccs1 | 2
COCCNCCCCOc1ccc(Br)cc1C | -8
NC(=O)NC(=O)c1nccnc1C(=O)O | 11
Cc1cc(C)nc(N(C#N)Cc2ccccc2C)n1 | 3
COc1ccc([N+](=O)[O-])cc1NC(=O)c1ccc(CN(c2ccccc2)S(C)(=O)=O)cc1 | 14
CN(C)C(=O)/C(C#N)=C\c1cc(Br)c(Sc2ccc(Cl)cc2)o1 | 26
COc1ccc(OCCSCc2nnc(NC(=O)Nc3ccc(Cl)cc3)s2)cc1 | 15
CC1CCN(CC(=O)NCc2ccco2)CC1 | 13
COc1cc(NC(=O)CSc2nnc(Cn3nnc4ccccc43)n2C)cc(OC)c1 | 11
Cc1ccc(O)c(N=Cc2sc3ccccc3c2Cl)c1 | 21
COc1cnc(NS(=O)(=O)c2ccc(N)cc2)nc1 | 4
O=C(CN1C(=O)c2ccccc2C1=O)NCC(=O)OCC(=O)c1ccc(Cl)cc1 | 18
Cc1ccc(C(N)=Nc2ccccc2)cc1 | 16
O=C(/C=C/c1ccccc1[N+](=O)[O-])NC1CCCC1 | 17
CCN(Cc1ccccc1)C(=O)CSc1nc(C)cc(=O)[nH]1 | 15
O=C(Nc1nc2ccccc2[nH]1)c1cccs1 | 15
O=C(NC1CCCc2ccccc21)c1cc(S(=O)(=O)N2CCOCC2)ccc1F (configuration not stated) | 13
CCc1cccc(C)c1NC(=S)NCC(c1cccnc1)N(C)C (configuration not stated) | 9
Cc1ccc(/C=C/C(=O)NCc2ccncc2)cc1 | 10
Nc1nc(SCC(=O)Nc2ccc(S(N)(=O)=O)cc2)n[nH]1 | 13
O=C(NCCCn1ccnc1)c1ccc(Cl)cc1[N+](=O)[O-] | 6
Cc1nnc(C)c2c(C)n(-c3cccc4cccnc34)c(C)c12 | 0
COc1ccc(CC(=O)Nc2nnc(-c3cccc([N+](=O)[O-])c3)s2)cc1 | 10
Cc1cccc(C2=NNC(=O)C(c3ccc(Cl)cc3)C2)c1 (configuration not stated) | -8
O=C(Nc1cc(=O)[nH]c(=O)[nH]1)c1cccc(Br)c1 | 19

25 successive records out of the list so far, for reference:
Compound | Biofilm kill mix
Cc1[nH]c2ccccc2c1/C=N/NC(=O)c1cccs1 | 2
COCCNCCCCOc1ccc(Br)cc1C | -8
NC(=O)NC(=O)c1nccnc1C(=O)O | 11
Cc1cc(C)nc(N(C#N)Cc2ccccc2C)n1 | 3
COc1ccc([N+](=O)[O-])cc1NC(=O)c1ccc(CN(c2ccccc2)S(C)(=O)=O)cc1 | 14
CN(C)C(=O)/C(C#N)=C\c1cc(Br)c(Sc2ccc(Cl)cc2)o1 | 26
COc1ccc(OCCSCc2nnc(NC(=O)Nc3ccc(Cl)cc3)s2)cc1 | 15
CC1CCN(CC(=O)NCc2ccco2)CC1 | 13
COc1cc(NC(=O)CSc2nnc(Cn3nnc4ccccc43)n2C)cc(OC)c1 | 11
Cc1ccc(O)c(N=Cc2sc3ccccc3c2Cl)c1 | 21
COc1cnc(NS(=O)(=O)c2ccc(N)cc2)nc1 | 4
O=C(CN1C(=O)c2ccccc2C1=O)NCC(=O)OCC(=O)c1ccc(Cl)cc1 | 18
Cc1ccc(C(N)=Nc2ccccc2)cc1 | 16
O=C(/C=C/c1ccccc1[N+](=O)[O-])NC1CCCC1 | 17
CCN(Cc1ccccc1)C(=O)CSc1nc(C)cc(=O)[nH]1 | 15
O=C(Nc1nc2ccccc2[nH]1)c1cccs1 | 15
O=C(NC1CCCc2ccccc21)c1cc(S(=O)(=O)N2CCOCC2)ccc1F (configuration not stated) | 13
CCc1cccc(C)c1NC(=S)NCC(c1cccnc1)N(C)C (configuration not stated) | 9
Cc1ccc(/C=C/C(=O)NCc2ccncc2)cc1 | 10
Nc1nc(SCC(=O)Nc2ccc(S(N)(=O)=O)cc2)n[nH]1 | 13
O=C(NCCCn1ccnc1)c1ccc(Cl)cc1[N+](=O)[O-] | 6
Cc1nnc(C)c2c(C)n(-c3cccc4cccnc34)c(C)c12 | 0
COc1ccc(CC(=O)Nc2nnc(-c3cccc([N+](=O)[O-])c3)s2)cc1 | 10
Cc1cccc(C2=NNC(=O)C(c3ccc(Cl)cc3)C2)c1 (configuration not stated) | -8
O=C(Nc1cc(=O)[nH]c(=O)[nH]1)c1cccc(Br)c1 | 19

(next part)
Compound | Biofilm kill mix
O=C(COC(=O)c1ccc(O)cc1O)NC1CCS(=O)(=O)C1 (configuration not stated) | 8
CC(C)=N/N=c1\scc(C)n1Cc1ccco1 | 11
c1ccc(Nc2nc(NCC3CCCO3)c3ccccc3n2)cc1 (configuration not stated) | 3
O=C(CCC1CCCCC1)NCc1ccc(F)cc1 | 16
